# High-throughput results as filed in PubChem BioAssay.
# Integrin act MD – qHTS for Activators of Integrin-Mediated Alleviation for Muscular Dystrophy; Potency, µM (highest dose often 38.3 µM), inactives show at the top dose activation, most hits filed as activators; hit rate 0.064% among 350,000; alpha7betagal myoblasts, beta-gal FDG fluorescence, 48 h;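 further: potency means the concentration at half of the fitted maximal effect; 100% = response of the positive control SU9516; nearly all actives have a fitted effect of over 60% in size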
#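 alpha7betagal+/- myoblasts (passage 13, 250/well) treated 48 h at 37C with compounds at 1:260 dilution of DMSO stock. Lysed, then beta-galactosidase activity read as FDG fluorescence (ex 480/em 540) after 30 min, with pre-read for autofluorescence.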
# Tb PFK inh – qHTS Assay to Find Inhibitors of T. brucei phosphofructokinase | ATP-dependent 6-phosphofructokinase (Trypanosoma brucei brucei), O15648 | T. brucei PFK, ADP-Glo luminescence | Potency, µM (series often up to 57.5 µM), for the others: at the top dose activity, negative = inhibition, actives largely listed as inhibitors | hit rate 0.17% among 330,000 | AID 485367, 2010;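 further: potency means the concentration at half of the fitted maximal effect; 0% = uninhibited 1x PFK enzyme wells and -100% = no-enzyme wells; nearly all actives have a fitted effect of over 60% in size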
# Target sequence (O15648 whole entry, looked up): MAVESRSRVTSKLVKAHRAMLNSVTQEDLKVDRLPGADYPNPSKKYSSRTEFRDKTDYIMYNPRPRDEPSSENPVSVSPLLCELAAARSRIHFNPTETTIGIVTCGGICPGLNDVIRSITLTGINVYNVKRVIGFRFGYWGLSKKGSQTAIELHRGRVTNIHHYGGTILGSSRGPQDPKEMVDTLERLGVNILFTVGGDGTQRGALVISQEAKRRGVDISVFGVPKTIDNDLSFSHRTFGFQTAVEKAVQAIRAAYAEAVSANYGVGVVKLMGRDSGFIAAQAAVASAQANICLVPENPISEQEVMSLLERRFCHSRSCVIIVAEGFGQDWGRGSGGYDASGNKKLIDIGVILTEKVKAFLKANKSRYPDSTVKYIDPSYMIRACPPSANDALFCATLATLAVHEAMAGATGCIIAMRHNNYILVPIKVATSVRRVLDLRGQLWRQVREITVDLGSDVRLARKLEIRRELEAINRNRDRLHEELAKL
#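 Luminescent ADP detection (ADP-Glo, two-step: ATP depletion then ADP-to-ATP conversion for luciferase) reported PFK activity after 45 min room-temperature reaction of 1.25 nM enzyme with 0.5 mM F6P and 0.1 mM ATP at pH 8.0.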
# ELG1 DNA repair – qHTS screen for small molecules that inhibit ELG1-dependent DNA repair in human embryonic kidney (HEK293T) cells expressing luciferase-tagged ELG1; Potency, µM (top dose mostly 46.1 µM), without a hit: at the highest dose activity change, negative = inhibition, actives largely listed as inhibitors; hit rate 2.3% among 330,000; HEK293T ELG1-luciferase reporter, luminescence, 16 h; DNA damage induced by 5-fluorouridine; further: potency means the concentration at half of the fitted maximal effect; on the % scale 0 is the no-effect control and ±100 the full control effect; nearly all actives have a fitted effect of over 55% in size
#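 Overnight (16 hr) co-exposure of 2,000 cells/well to 5-fluorouridine and compound at 37 °C preceded detection. Luciferase was quantified via ONE-Glo luminescence; loss of signal denotes inhibition.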
# ASM inhibitor – Inhibitors of Secretory Acid Sphingomyelinase (S-ASM): qHTS. placental ASM, HMU-PC fluorogenic substrate, 60 min. Potency, µM (series often up to 57.5 µM), without a hit: at the top dose activity change, negative = inhibition, hits mostly inhibitors. hit rate 0.006% among 340,000. AID 504937, 2011; further: potency means the concentration at half of the fitted maximal effect
#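 Fluorogenic HMU-PC substrate (9 uM final) is turned over by placental ASM in 60 min at 37 C after a 10 min compound preincubation. Reaction ended by alkaline stop (pH 10), with fluorescence read at 386/447 nm.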
# Mito fusion act – qHTS Assay for Small Molecule Inhibitors of Mitochondrial Division or Activators of Mitochondrial Fusion | S. cerevisiae fusion-defective mutant growth rescue, CellTiterGlo 48 h | Potency, µM (highest dose often 46.1 µM), inactives show top-dose growth rescue (activation), actives largely listed as activators | hit rate 0.23% among 320,000;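 further: potency means the concentration at half of the fitted maximal effect; % of control where 0% means no effect; nearly all actives have a fitted effect of over 45% in size; temperature-sensitive fusion mutants such as fzo1-1 at 37 °C on non-fermentable ethanol glycerol medium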
#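 Luminescent cell viability in 1536-well qHTS format served as the measure of rescued growth in ts fusion-mutant S. cerevisiae cultured on non-fermentable YPEG for 48 hours at 37C.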
# TCR activator – Activators of T cell receptors: qHTS campaign. primary human leukocytes, anti-CD3, IL-2 HTRF, 48 h. Potency, µM (highest dose often 9.22 µM), without a hit: at the top dose activation of IL-2 secretion, hits mostly activators. 330,000 tested, under 10 active; further: % of control where 0% means no effect
#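 TCR engagement came from a-CD3 beads alone, with compounds added to primary human leukocytes for 48 hr. Secreted IL-2 bridged europium cryptate- and d2-labelled anti-IL-2 antibodies, giving FRET emission at 665nm after 320nm excitation.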
# PTAP TSG101 blk – qHTS Assay for Iinhibitors of HIV-1 Budding by Blocking the Interaction of PTAP/TSG101; Potency, µM (highest dose often 115 µM), inactives show at the highest dose activity change, negative = inhibition, hits mostly inhibitors; 340,000 tested, under 10 active; AID 493005, 2010; Fluorescence polarization, FITC-PTAP peptide / Tsg101 binding; active means well fitted inhibition curve with a large enough effect in the main read-out, with a control signal flat, not every such curve was filed as active; inconclusive means small, poorly fitted or top-dose-only effect, or effect the other way, or a change in a side signal; inactive means no such curve, though single readings can be large or run the other way; further: potency means the concentration at half of the fitted maximal effect; % of control where 0% means no effect
#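 FP read-out: FITC-PTAP peptide, 50 nM final, binding Tsg101 binding domain, 10 uM final; 20 min, r.t.; 10 mM HEPES pH 7.5, 0.15 M NaCl, 0.01% Tween 20, 3 mM EDTA, 0.1 mM TCEP.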
# Eya2 inh – qHTS Assay for Inhibitors of the Phosphatase Activity of Eya2. Protein phosphatase EYA2 (Homo sapiens), O00167. recombinant Eya2, OMFP fluorescence dephosphorylation (OMFP is methylfluorescein phosphate). Potency, µM (titrated, usually from 76.9 µM), for inactives: at the top dose activity, negative = inhibition, usual class: inhibitors. hit rate 0.006% among 330,000; further: potency means the concentration at half of the fitted maximal effect; on the % scale 0 is the no-effect control and ±100 the full control effect
# Target sequence (O00167 whole entry, looked up): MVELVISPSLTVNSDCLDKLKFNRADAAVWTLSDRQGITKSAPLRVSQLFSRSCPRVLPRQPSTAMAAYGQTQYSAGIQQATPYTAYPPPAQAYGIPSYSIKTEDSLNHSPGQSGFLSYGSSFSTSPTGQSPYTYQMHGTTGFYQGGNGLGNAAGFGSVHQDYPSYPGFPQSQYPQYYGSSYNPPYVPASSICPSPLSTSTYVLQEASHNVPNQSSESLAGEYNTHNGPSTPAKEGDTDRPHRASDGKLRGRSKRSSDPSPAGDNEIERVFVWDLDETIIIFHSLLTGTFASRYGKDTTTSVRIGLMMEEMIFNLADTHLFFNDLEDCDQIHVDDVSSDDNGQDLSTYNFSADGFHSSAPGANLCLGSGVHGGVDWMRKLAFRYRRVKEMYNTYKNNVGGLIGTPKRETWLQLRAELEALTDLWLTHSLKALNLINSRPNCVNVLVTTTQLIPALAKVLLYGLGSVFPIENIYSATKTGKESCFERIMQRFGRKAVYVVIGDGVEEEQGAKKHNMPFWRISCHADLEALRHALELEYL
#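 Eya2 protein (added as 0.2 uM solution) was preincubated with compound for 10 min at ambient temperature in 50 mM HEPES pH 7.5, 50 mM NaCl, 5 uM MgCl2, 0.05% BSA, 1 mM DTT. OMFP (added at 50 uM) then reacted 10 min; fluorescence read at 485/525 nm.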
# Chronic BCR inh – qHTS Assay to Find Inhibitors of Chronic Active B-Cell Receptor Signaling; ABC-DLBCL IkBa-CBG/CBR reporter, luminescence ratio, 4 h; Potency, µM (titrated, usually from 46.1 µM), for inactives: at the top dose ratio change, negative = lower green/red ratio, most hits filed as inhibitors; hit rate 0.05% among 340,000; active means well fitted inhibition curve with a large enough effect in the signal ratio, with a control signal flat, not every such curve was filed as active; inconclusive means small, poorly fitted or top-dose-only effect, or effect the other way, or a change in a side signal; the % refers to the signal ratio;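 further: potency means the concentration at half of the fitted maximal effect; plate controls were basal doxycycline-induced cells for no effect and cells given 10 µM MG132 for full effect; MG132 reads +100%, hits lower the ratio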
#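 Concentration-response series (up to 46 uM) were applied to TMD8 dual-reporter cells for 4 h at 37C with doxycycline. Green/red ratio, after filter-overlap correction, defined %Activity; red signal alone was normalised to basal cells and zero luminescence.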
# A-T KAP1 phos – qHTS Assay for Identifying a Potential Treatment of Ataxia-Telangiectasia; Potency, µM (titrated, usually from 57.5 µM), without a hit: top-dose activation, usual class: activators; hit rate 0.19% among 320,000; […] A-T fibroblasts, KAP-1 phosphorylation AlphaLISA; neocarzinostatin DNA damage 30 min before lysis; further: potency means the concentration at half of the fitted maximal effect; % of control where 0% means no effect; nearly all actives have a fitted effect of over 45% in size
#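 ATM-like activity read as KAP-1 phosphorylation via AlphaLISA donor/acceptor antibody pairs after lysis and 6 hr at 25C. Cells were ATM-null patient fibroblasts ([…], hTERT), dosed 60 min, then exposed to the DSB inducer NCS for 30 min.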
# * = called active by the depositor; ? = inconclusive; nt = not tested or not shown; & = joins results of further samples; [ ] = remark or other dose. Unless noted, the call rests on the fitted dose curve; in most records, active means well fitted curve in the direction sought with a large enough effect; inconclusive means small, poorly fitted or top-dose-only effect, or another doubt; inactive means no such curve, though single readings can be large; an effect the other way counts as inactive or inconclusive.
SMILES	Eya2 inh	Integrin act MD	ELG1 DNA repair	A-T KAP1 phos	PTAP TSG101 blk	TCR activator	Mito fusion act	ASM inhibitor	Tb PFK inh	Chronic BCR inh
O=C(Cn1cnc2sc3c(c2c1=O)CCCC3)NCC(=O)Nc1ccccc1F	6.8%	-32.8%	5.5%	-17.1%	-1.5%	-2.3%	-0.3%	-2.9%	0.4%	-0.1%
C/C(=N\NC(=O)c1ccc(NS(=O)(=O)c2cccs2)cc1)c1ccccc1	0.3%	18.8%	11.5%	1.3%	1.6%	5.3%[46.1 µM]	-2.2%	3.1%	0.8%	?
CCN1CCCC1CNS(=O)(=O)c1c(C)cc(C)cc1C (stereo not given)	-6.4%	?	-1.7%	5.4%	-0.5%	-1.0%	-3.9%	-1.2%	-7.8%	0.8%
COc1ccc(C(Cl)=C(c2ccc(OC)cc2)c2ccc(OC)cc2)cc1	-1.1%	nt	0.9%	nt	-0.6%	0.9%	6.1%	-20.3%	-2.2%	?
CC(=O)[C@H]1[C@H](C#N)C[C@H]2[C@@H]3CC=C4C[C@@H](O)CC[C@]4(C)[C@H]3CC[C@@]21C	3.9%	nt	4.5%	-7.6%	-2.2%	3.3%	-0.5%	-4.9%	1.4%	?
Cc1nn(Cc2ccccc2Cl)c(C)c1NC(=O)NC12CC3CC(CC(C3)C1)C2	8.3%	-21.3%	-12.4%	0.2%	-4.5%	-6.6%	16.1%	-5.0%	2.1%	1.5%
NC(CO)C(=O)NNCc1ccc(O)c(O)c1O (stereo not given)	0.9%&-8.2%	nt	5.8%	5.9%	-0.1%	-2.1%	1.5%&-2.4%	-2.1%	-16.1%	2.7%
COc1ccccc1C(CC(=O)Nc1ccccc1C)c1ccc(OC(C)C)cc1 (stereo not given)	-6.0%	-30.4%	?	0.5%	-4.8%	3.1%[46.1 µM]	2.4%	-3.2%	2.6%	-0.4%
COC(=O)c1ccc(NC(=O)Nc2ccc([N+](=O)[O-])cc2)cc1	10.1%	-14.8%	?	4.3%	-4.5%	2.9%	-16.7%	-6.2%	1.4%	?
NC(=O)c1ccc(-c2c(-c3ccccc3)sc3ccccc23)cc1	2.5%	0.0%	2.0%	0.7%	-0.4%	13.9%	-1.4%	4.3%	-0.1%	29.6%
CC12CCC(C/C1=N\N=C1\NC(=O)/C(=C\c3ccc(Cl)cc3)S1)C2(C)C (stereo not given)	6.0%	34.7%	?	15.5%	-6.8%	0.6%[46.1 µM]	-13.3%	-25.5%	0.8%	-13.9%
COc1cccc(NC(=O)c2ccc3c(O)c(S(=O)(=O)c4ccccc4)c(=O)[nH]c3c2)c1	7.1%	-21.7%	12.1%	-4.2%	-3.7%	7.4%	-16.9%	7.4%	17.9%	?
COc1ccc(-c2cc3ccccc3oc2=O)cc1NC(=O)c1ccc([N+](=O)[O-])o1	-4.1%	-2.0%	-8.8%	0.1%	0.3%	-1.1%	-19.2%	-2.4%	0.8%	6.7%
O=C(O)C1c2ccccc2C(=O)N(Cc2ccc(F)cc2)C1c1ccncc1 (stereo not given)	0.9%	9.7%	-0.1%	-4.5%	-2.6%	4.5%	-0.7%	3.6%	-8.5%	8.5%
COc1ccc(C)cc1NC(=O)c1ccc2c(O)c(S(=O)(=O)c3ccccc3)c(=O)[nH]c2c1	6.8%	?	5.2%	-2.0%	-4.2%	-3.8%	-3.8%	3.6%	-0.6%	-4.0%
Cc1cccc(-c2nnc(SCC(=O)O)n2Cc2ccccc2)c1	-6.7%	0.0%	?	3.0%	-2.9%	-10.1%	-0.1%	1.1%	-2.6%	-4.8%
O=C(COC(=O)CNC(=O)c1cccs1)Nc1ccc(C(F)(F)F)cc1[N+](=O)[O-]	5.3%	0.0%	15.5%	-1.1%	-1.0%	3.7%	-3.0%	-0.2%	12.4%	?
CCOC(=O)N1CCN(c2cc(NCCO)c([N+](=O)[O-])c3nonc23)CC1	14.9%	-8.3%	0.0%	-1.6%	-6.7%	nt	-1.0%	-3.3%	-4.9%	-1.1%
C(/C=C/C=C/Nc1ccccc1)=Nc1ccccc1	17.0%	-13.5%	4.0%	6.6%	-0.6%	0.1%	1.8%	-0.1%	-4.2%	-7.3%
CC(C)(C)[C@]1(O)CCN2C[C@H]3c4ccccc4CCc4cccc(c43)[C@@H]2C1	-11.2%&-5.7%&-1.5%	nt	-14.9%	1.0%	-3.1%	-11.4%	-11.8%&-39.4%&-7.5%	3.0%	9.1%	4.7%
Nc1c(C(=O)O)sc2nc(-c3ccccc3)cc(-c3ccccc3)c12	6.0%	-6.7%	-4.7%	2.7%	2.0%	-3.5%	12.7%	6.8%	-2.7%	3.1%
Clc1cc(Cl)c(Cl)cc1Cl	15.1%	nt	10.7%	4.1%	-4.9%	7.2%	3.8%	-3.5%	-0.4%	-0.1%
COc1cccc2c1C(=O)c1c(O)c3c(c(O)c1C2=O)C[C@@](O)(C(C)=O)C[C@@H]3O[C@H]1C[C@H](N)[C@H](O)[C@H](C)O1	36.5%	nt	3.26µM*	-23.7%	?	-0.4%	-7.9%	-18.7%	-6.9%	?
CCOCC(=O)OCC(=O)NC12CC3CC(CC(C3)C1)C2	-1.7%	6.2%	7.3%	1.8%	-0.5%	-3.0%	0.8%	3.1%	2.8%	0.3%
C=CCn1c(C)cc(C(=O)COc2ccc(S(=O)(=O)N3CCCC3)cc2[N+](=O)[O-])c1C	-2.4%	-33.0%	?	-5.2%	-12.6%	-2.3%	1.7%	-1.3%	-3.4%	1.7%
CC(C)Cc1nnc(NC(=O)c2ccncc2)s1	-1.4%	6.8%	16.8%	0.8%	-3.6%	-16.3%	0.3%	5.6%	0.4%	?
O=C(O[C@@H](C(=O)O)[C@@H](OC(=O)c1ccccc1)C(=O)O)c1ccccc1	20.4%	nt	?	5.0%	-9.2%	5.9%	-8.2%	1.5%	6.1%	-1.2%
COc1cccc2cc(C(=O)CS(=O)(=O)c3ccc(Cl)cc3)c(=O)oc12	7.5%	4.3%	-1.1%	10.0%	-2.3%	4.7%	-5.4%	1.6%	-9.9%	?
COc1ccc(OC)c(NC(=O)Cc2coc3cc(C)cc(C)c23)c1	9.0%	-8.1%	?	nt	-6.8%	5.1%	3.2%	1.7%	-1.8%	-24.3%
NC(=O)c1ccc(N2CCN(S(=O)(=O)c3ccccc3)CC2)c([N+](=O)[O-])c1	-6.9%	-53.9%[inhibitor]	1.64µM*	-0.7%	-4.5%	3.1%	-0.6%	-4.4%	-2.2%	-3.8%
CC(=O)C1=C(C)N(Cc2ccccc2)C(=O)N[C@H]1c1cccs1	3.9%	19.3%	-4.1%	2.9%	-3.1%	1.9%	9.4%	3.0%	-1.4%	-1.2%
CCOC(=O)c1cnc2c(cnn2CC)c1NN=C(C)C	-4.9%	nt	nt	nt	nt	nt	9.8%	nt	nt	nt
CC(=O)CSc1nnc(-c2ccco2)n1-c1ccccc1	-16.1%	-9.6%	11.1%	7.6%	-0.2%	-1.0%	-7.0%	4.9%	-4.6%	4.2%
COc1ccc(/C=C2/Sc3ccc(C(=O)N4CCc5ccccc5C4)cc3NC2=O)cc1	2.8%	-4.7%	-22.3%	1.1%	19.0%	4.6%	10.5%	-16.0%	-4.0%	-0.5%

# Arranged by SMILES length (high to low): some entries from above
SMILES	Eya2 inh	Integrin act MD	ELG1 DNA repair	A-T KAP1 phos	PTAP TSG101 blk	TCR activator	Mito fusion act	ASM inhibitor	Tb PFK inh	Chronic BCR inh
NC(=O)c1ccc(N2CCN(S(=O)(=O)c3ccccc3)CC2)c([N+](=O)[O-])c1	-6.9%	-53.9%[inhibitor]	1.64µM*	-0.7%	-4.5%	3.1%	-0.6%	-4.4%	-2.2%	-3.8%
COc1ccc(OC)c(NC(=O)Cc2coc3cc(C)cc(C)c23)c1	9.0%	-8.1%	?	nt	-6.8%	5.1%	3.2%	1.7%	-1.8%	-24.3%
CCOC(=O)c1cnc2c(cnn2CC)c1NN=C(C)C	-4.9%	nt	nt	nt	nt	nt	9.8%	nt	nt	nt

# Only part of the results is shown, so the mix of outcomes need not match the whole.
